Bioassay records as filed in PubChem BioAssay.
CtBP-E1A blk: qHTS Assay for Inhibitors of the CtBP/E1A Interaction; CtBP / adenovirus E1A interaction (AlphaScreen); AlphaScreen GST-E1A/His-CtBP binding, 1536-well; hits give low values; control for the full effect not named in the record; activity change, % (no concentration beside the values); hit rate 0.49% among 340,000; AID 651724, 2012; in the data active means activity change below about -65%; inconclusive means about -30% to -65%; inactive means above about -30%; further: on the % scale 0 is the no-effect control and ±100 the full control effect; compound concentration not given in the record
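GST-E1A and His-tagged CtBP (125 nM each as 5X stock) were preincubated with pin-transferred compound for 2 h at 37 °C in the dark, then glutathione donor and nickel acceptor beads were added for 1 h before AlphaScreen reading.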
PINK1 modulator: A Quantitative High throughput Screen to Identify Chemical Modulators of PINK1 Expression | PINK1 immunofluorescence, high-content cytometry, 24 h | Potency, µM (top dose mostly 76.6 µM), for the others: at the highest dose activation (PINK1 increase), usual class: activators | hit rate 0.2% among 410,000; active = well fitted activation curve with a large enough effect; inconclusive = small, poorly fitted or top-dose-only effect; inactive = flat fitted curve, though single readings scatter; cell line not stated here;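 further: potency means the concentration at half of the fitted maximal effect; % of control where 0% means no effect; nearly all actives have a fitted effect of over 65% in size; a mitochondrial uncoupler was the plate control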
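Decision-based qHTS: stable cells, 24 h exposure to five compound concentrations, CCCP as control. Fixed cells stained for PINK1 plus nuclear, mitochondrial and cell markers, cytometer read.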
D2 agonist: Beta-Arrestin HTS for Positive Allosteric Modulators of the Human D2 Dopamine Receptor: Agonists. hit rate 0.084% among 360,000. D(2) dopamine receptor (Homo sapiens), P14416. activation, % (no concentration beside the values). DiscoveRx PathHunter D2 beta-arrestin, luminescence, 90 min; 100% = 57 uM dopamine signal; in the data active = activation above about 40%; inconclusive = about 15% to 40%; inactive = below about 15%; further: compound concentration not given in the record; the text of the record calls up to 30% inactive
Target sequence (P14416 whole entry, looked up): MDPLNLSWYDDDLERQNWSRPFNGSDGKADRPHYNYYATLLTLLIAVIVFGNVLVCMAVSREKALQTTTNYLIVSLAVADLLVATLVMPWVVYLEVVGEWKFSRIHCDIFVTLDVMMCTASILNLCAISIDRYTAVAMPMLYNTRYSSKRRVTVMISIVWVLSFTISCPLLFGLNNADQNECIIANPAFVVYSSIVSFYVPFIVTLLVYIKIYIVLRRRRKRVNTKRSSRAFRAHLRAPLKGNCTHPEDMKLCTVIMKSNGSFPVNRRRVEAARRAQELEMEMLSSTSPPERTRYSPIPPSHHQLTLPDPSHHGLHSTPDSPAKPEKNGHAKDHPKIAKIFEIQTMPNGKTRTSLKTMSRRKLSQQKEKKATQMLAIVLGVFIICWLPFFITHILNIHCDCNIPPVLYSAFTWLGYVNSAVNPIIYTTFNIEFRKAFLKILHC
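DiscoveRx PathHunter D2 beta-arrestin cells (2,100/well) attached overnight, then compound-stimulated 90 min at 37 C in HBSS/10 mM HEPES/0.1% Tween-20 buffer; beta-galactosidase complementation read by luminescence after 1 h at ambient temperature. Dopamine 57 uM final (EC100) as control.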
Six1-Eya2 blk: qHTS Assay for Inhibitors of the Six1/Eya2 Interaction; AlphaScreen GST-Six1/His-Eya2 binding, biochemical; hits give low values; control for the full effect not named in the record; hit rate 0.56% among 360,000; Homeobox protein SIX1 (Homo sapiens) + Protein phosphatase EYA2 (Homo sapiens), …; AID 651725, 2012; activity change, % (concentration not given with the values); in the data active = activity change below about -65%; inconclusive = about -30% to -65%; inactive = above about -30%; further: on the % scale 0 is the no-effect control and ±100 the full control effect
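GST-Six1 + His-Eya2 (5X stock: 250/500 nM); Tris pH 8.0, 300 mM NaCl, 0.05% BSA, 0.02% Tween 20; GSH donor/Ni acceptor beads; 1 h 37 °C dark; AlphaScreen readout.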
TRPML1 agonist: qHTS for Agonists of the Human Mucolipin Transient Receptor Potential 1 (TRPML1); Mucolipin-1 (Homo sapiens), Q9GZU1; TRPML1-expressing cells, Ca2+ dye fluorescence, FDSS; host cell line not named in the record; reference of the full effect not given here; activation, % (concentration not given with the values); hit rate 0.12% among 410,000; AID 624414, 2012; in the data active = activation above about 50%; inconclusive = about 30% to 50%; inactive = below about 30%; further: 0% is about no effect; the text of the record puts the active cut at 80%
Target sequence (Q9GZU1 whole entry, looked up): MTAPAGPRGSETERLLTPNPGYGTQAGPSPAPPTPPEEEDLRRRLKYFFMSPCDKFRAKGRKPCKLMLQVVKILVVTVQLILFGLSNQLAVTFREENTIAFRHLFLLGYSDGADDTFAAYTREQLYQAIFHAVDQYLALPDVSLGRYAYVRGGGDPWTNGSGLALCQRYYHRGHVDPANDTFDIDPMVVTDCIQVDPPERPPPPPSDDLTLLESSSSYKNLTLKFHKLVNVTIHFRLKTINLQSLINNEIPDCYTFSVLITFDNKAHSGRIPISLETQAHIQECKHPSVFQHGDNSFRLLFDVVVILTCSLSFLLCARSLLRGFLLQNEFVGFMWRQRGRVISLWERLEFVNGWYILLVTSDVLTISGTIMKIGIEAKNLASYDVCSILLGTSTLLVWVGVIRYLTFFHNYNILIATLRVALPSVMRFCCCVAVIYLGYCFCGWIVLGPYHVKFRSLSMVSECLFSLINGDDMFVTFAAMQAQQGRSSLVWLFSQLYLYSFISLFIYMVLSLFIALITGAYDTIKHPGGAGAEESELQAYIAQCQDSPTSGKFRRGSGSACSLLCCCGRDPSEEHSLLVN
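In this qHTS format, compounds were pin-transferred onto Ca8-dye-loaded TRPML1-DL cells induced with Tet overnight, and intracellular Ca2+ fluorescence was recorded kinetically for 110 s after a 10 s baseline. A subsequent 4uM final 54-4 (EC80) addition followed by a second 110 s read served as the antagonist phase.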
TRPML1 blocker: qHTS for Inhibitors of the Human Mucolipin Transient Receptor Potential 1 (TRPML1) | AID 624415, 2012 | hit rate 0.02% among 390,000 | activity change, negative = inhibition, % (concentration not given with the values) | TRPML1-inducible cells, Ca2+ dye fluorescence, FDSS; hits give low values; inhibition of EC80 agonist-evoked calcium signal | Mucolipin-1 (Homo sapiens), Q9GZU1; in the data active means activity change below about -50%; inconclusive means about -30% to -50%; inactive means above about -30%;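 further: stimulus is agonist 54-4 at its EC80 concentration; on the % scale 0 is the no-effect control and ±100 the full control effect; compound concentration not given in the record; the text of the record puts the active cut at -80%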
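Calcium fluorescence in TRPML1-DL cells induced overnight with Tet: a 110 s read after compound pin addition, then a 110 s antagonist read after challenge with 54-4 at 4 uM final (EC80).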
* hit, by the source's call; ? = inconclusive; / = not tested or not shown; [ ] = dose if it differs, or a comment.

| smiles | Six1-Eya2 blk | CtBP-E1A blk | D2 agonist | TRPML1 blocker | PINK1 modulator | TRPML1 agonist |
| --- | --- | --- | --- | --- | --- | --- |
| CC1(C(=O)Nc2ccc(Cl)cc2)Cc2c(-c3ccc(C(N)=O)cc3)ccnc2O1 (stereo unspecified) | -4 | 4 | 1.5 | / | 2.4% | -0.7 |
| O=C(Cc1ccccc1)Nc1c(C(=O)c2ccccc2)oc2ccccc12 | / | / | / | 5 | -0.7% | 3.0 |
| CCC(C)Sc1ccc([C@H]2N[C@@](CC(C)C)(C(=O)OC)[C@H]3C(=O)N(CC)C(=O)[C@@H]23)cc1 (stereo partly specified) | -7 | -2 | -2.8 | 10 | 4.1% | 0.0 |
| CCCn1c(C(Cc2ccccc2)NC(=O)COC)nc2ccccc21 (stereo unspecified) | -3 | 3 | -1.1 | 7 | -0.1% | -0.6 |
| COc1ccc(N(C)C(=O)c2ccc3c(Cl)c4c(nc3c2)CCCC4)c(OC)c1 | -9 | -3 | -6.2 | 34 | 2.2% | 0.5 |
| CC(C)(C)c1ccc(C(=O)NC(=S)Nc2ccc(N3CCOCC3)cc2)cc1 | 18 | 0 | -0.8 | 5 | 11% | 1.0 |
| COc1ccc(S(=O)(=O)N(C)CC(=O)Nc2ccccc2OC)cc1C | 0 | 15 | -2.3 | -7 | 2.2% | -0.5 |
| Cn1nc(-c2ccc(C(=O)Nc3cccc(Cl)c3)cc2)c2ccccc2c1=O | 9 | 1 | 0.5 | 0 | ? | 0.2 |
| O=C(Nc1ccc(N2CCOCC2)cc1)C1(c2ccc(Cl)cc2)CCC1 | -26 | -19 | -1.3 | 8 | 1.0% | 5.5 |
| O=C(NCCCn1ccnc1)/C(=C\c1cccs1)NC(=O)c1ccco1 | 7 | 11 | -1.1 | 5 | -0.2% | 0.9 |
| Cc1ccc(NC(=O)CN2CCN(S(=O)(=O)c3ccc(C(C)C)cc3)CC2)cc1F | / | / | / | 2 | 1.3% | 1.7 |
| CC(=O)OC1c2ccccc2C(=O)N1Cc1ccccc1 (stereo unspecified) | 5 | 5 | -5.0 | 14 | 2.0% | 0.2 |
| COc1ccccc1NS(=O)(=O)c1ccc(O)c(C(=O)OCc2cccc([N+](=O)[O-])c2)c1 | -9 | -2 | 6.9 | 8 | 0.2% | 1.0 |
| CCOc1ccccc1NC(=O)C(=O)NCC1CCCN1CC (stereo unspecified) | -1 | 9 | 0.0 | -4 | -4.7%[38.3 µM] | -0.1 |
| O=C(O)/C=C/C(=O)NNc1ncnc2ccccc12 | -7 | -5 | -2.0 | -5 | 0.9% | -0.2 |
| CCOc1ccc(NC(=O)c2cc(S(=O)(=O)N3CCOCC3)cs2)cc1 | 2 | 1 | -5.6 | -3 | 1.4% | 2.3 |
| CCc1cc(C(=O)Nc2cnn(Cc3ccccc3C)c2)no1 | / | / | / | 3 | 5.7% | -1.3 |
| Cn1c(COc2cccc3cccnc23)nnc1SCC(=O)O | -1 | / | -1.0 | 18 | 1.1% | 0.0 |
| CCOc1ccc(N(CC)S(=O)(=O)c2ccc3c(c2)n(C)c(=O)c(=O)n3C)cc1 | 3 | 0 | -1.1 | 10 | 7.2% | -0.6 |
| O=C(NNc1ccccc1Br)C(O)(c1cccc(C(F)(F)F)c1)c1cccc(C(F)(F)F)c1 | 0 | 3 | 7.6 | 0 | -2.2% | 3.8 |
| COc1ccc(C(=O)Nc2sc3c(c2C(=O)O)CC(C)(C)OC3)cc1 | -6 | -3 | -2.7 | 5 | 0.1% | -0.4 |
| COc1ccc(OC)c(NC(=O)CSc2nnnn2-c2ccccc2F)c1 | -1 | -4 | 0.5 | -13 | 3.2% | 0.4 |
| COc1cccc(/C=C/C(=O)OCC(=O)N2CCN(c3ccccc3)CC2)c1 | -9 | ? | -2.3 | 3 | 3.2% | 2.5 |
| O=C(Nc1ccccc1C(=O)OCC(=O)c1c[nH]c2ccccc12)c1ccco1 | -6 | 6 | 2.1 | 25 | 3.1% | -0.3 |
| CC(=O)Nc1ccc(NC(=O)CSc2nnc(C3CC3)n2C)cc1 | 5 | -1 | -1.9 | -5 | -0.9% | -0.7 |
| O=C(O)C(Cc1ccccc1N(CCO)CCO)N1C(=O)c2ccccc2C1=O (stereo unspecified) | -1 | 8 | -2.0 | 0 | 1.4% | -0.6 |
| Cc1c(C#N)c(N)nc2c3c(sc12)NC(=O)CC3c1ccc(F)cc1 (stereo unspecified) | 22 | 1 | -4.8 | -20 | ? | 1.8 |
| Cn1cccc1/C=C1/SC(=S)N(CC(=O)O)C1=O | -18 | -9 | -5.7 | -21 | -4.5% | 2.0 |
| COC(=O)COc1ccc(S(=O)(=O)NCCC2=CCCCC2)cc1C | 4 | 0 | -1.4 | 1 | 0.1%[38.3 µM] | -0.7 |
| CCCCN(CC)C(=O)CCn1c(=O)c2cccn2c2cccnc21 | / | / | / | 6 | 0.1% | 0.0 |
| Cc1nn(CC(=O)N(C)C2(C#N)CCCCC2)c(C)c1[N+](=O)[O-] | 15 | / | -5.0 | -8 | -1.1% | -0.3 |
| Cc1ccc(-n2c(=O)c3c(cnn3C)n(CC(=O)Nc3cccc(C)c3)c2=O)cc1 | / | / | / | -2 | 0.0% | -0.2 |

3 structures from above, arranged by SMILES length, rising:
| smiles | Six1-Eya2 blk | CtBP-E1A blk | D2 agonist | TRPML1 blocker | PINK1 modulator | TRPML1 agonist |
| --- | --- | --- | --- | --- | --- | --- |
| Cn1cccc1/C=C1/SC(=S)N(CC(=O)O)C1=O | -18 | -9 | -5.7 | -21 | -4.5% | 2.0 |
| Cc1c(C#N)c(N)nc2c3c(sc12)NC(=O)CC3c1ccc(F)cc1 (stereo unspecified) | 22 | 1 | -4.8 | -20 | ? | 1.8 |
| Cc1ccc(-n2c(=O)c3c(cnn3C)n(CC(=O)Nc3cccc(C)c3)c2=O)cc1 | / | / | / | -2 | 0.0% | -0.2 |

More entries follow:
| smiles | Six1-Eya2 blk | CtBP-E1A blk | D2 agonist | TRPML1 blocker | PINK1 modulator | TRPML1 agonist |
| --- | --- | --- | --- | --- | --- | --- |
| CCOC(=O)CN1CC23C=CC(O2)C(C(=O)NCc2ccc(F)cc2)C3C1=O (stereo unspecified) | -20 | 8 | 0.1 | -11 | 2.2% | -0.1 |
| O=C(Cn1[nH]c(=O)c2ccccc2c1=O)Nc1cccc(S(=O)(=O)N2CCCCCC2)c1 | 1 | -2 | -2.4 | -8 | 1.0% | 1.2 |
| c1ccc(-c2nc(-c3ccc(-c4ccon4)s3)no2)cc1 | 2 | -16 | 6.8 | -15 | 1.6% | 0.7 |
| CC1=C(C(=O)Nc2cccc(C(=O)NC(C)C)c2)SCCO1 | 6 | 4 | 4.8 | -2 | 1.8% | 0.1 |
| COC(=O)C1CCN(C(=O)c2ccc(NC(C)=O)cc2)CC1 | 4 | 3 | -1.2 | 6 | 2.5% | 0.8 |
| COc1ccc(CNC(=O)C(=O)NCC(c2cccs2)S(=O)(=O)c2ccc(C)cc2)cc1 (stereo unspecified) | / | / | / | 19 | -0.3% | 2.1 |
| O=C1CCC(C(=O)N2CCCCCC2)CN1CCc1ccc(Cl)cc1 (stereo unspecified) | 5 | 1 | -8.1 | 18 | -0.2% | -0.5 |
| Oc1ccc(/C=N/N(Cc2ccccc2)c2ccccc2)c(O)c1O | -17 | -10 | 4.1 | 20 | 13% | 0.6 |
| Cc1cccc(C(=O)NCC(=O)N2CCN(S(=O)(=O)c3cc(C)ccc3C)CC2)c1 | 0 | 3 | -1.3 | -8 | 2.9% | -0.2 |
| CC(=Nc1ccc(C)cc1C)c1sc2ccccc2c1O | -6 | / | -4.4 | -9 | -0.1% | 6.4 |
| CC1(C)CC(=O)C2=C(C1)N(Cc1ccco1)C(=O)NC2(C(F)(F)F)C(F)(F)F | 6 | 1 | -0.8 | -7 | 4.5%[38.3 µM] | 0.3 |
| CCc1nnc(NC(=O)CSc2nnc(-c3cccnc3)n2CC)s1 | 0 | -1 | -3.4 | 13 | 0.4% | -0.6 |
| CC(=O)Nc1ccc(S(=O)(=O)N[C@@H](C)C(=O)OCC(=O)c2ccc[nH]2)cc1 | -4 | -3 | -2.2 | -13 | -0.3% | -0.6 |
| Cc1nnnn1/C(=C\c1ccccc1)C(=O)OCC(=O)Nc1cccc(S(=O)(=O)N(C)C)c1 | 4 | -1 | -7.1 | 2 | -1.4% | 0.2 |
| O=C(OCC(=O)N1CCc2ccccc21)c1ccc([N+](=O)[O-])o1 | -7 | / | ? | 7 | 2.5% | -0.7 |
| CCSc1nsc(NC(=O)Nc2ccccc2OC)n1 | -9 | -10 | -4.1 | 19 | 2.6% | 1.3 |
| COc1ccc(CN(Cc2ccco2)c2cnc(S(C)(=O)=O)nc2C(=O)Nc2ccc(C)cc2C)cc1 | / | / | / | -18 | 0.0% | 1.2 |
| CC(C)n1nc(C(=O)Nc2ccccc2N2CCOCC2)c2ccccc2c1=O | 11 | 12 | 2.5 | -3 | 2.9% | 0.5 |
| Oc1ccc(-c2nc3c4c(ncn3n2)-c2ccccc2CC42CCCC2)cc1 | 7 | -5 | -5.8 | 4 | -0.2% | -0.4 |
| Cc1cc(C(=O)Nc2nc3c(C)cccc3s2)c(C)o1 | -5 | 2 | 4.1 | -12 | 9.4% | -0.7 |
| CCOC(=O)N1CCN(C(=O)C2CCN(C(=O)c3cc(OC)cc(OC)c3)CC2)CC1 | 1 | -11 | 0.7 | 16 | 1.2% | -0.1 |
| COc1ccc(-n2nc3c(c2NC(=O)CBr)CSC3)cc1 | 0 | 0 | 0.8 | -12 | 0.1% | -0.6 |
| c1ccc(OCCCN2CCCC2)cc1 | 2 | 3 | -1.7 | 34 | 1.0%[38.3 µM] | 0.7 |
| CN(C)CCNC(=O)/C(=N\O)c1ccccn1 | -10 | -14 | -2.2 | -7 | 0.7% | 3.7 |
| OCC1(CCCc2ccccc2)CCN(C2CCSCC2)CC1 | 5 | 1 | -1.0 | -17 | -1.4% | 1.4 |
| CSCCC(N=C1NS(=O)(=O)c2ccccc21)C(=O)NCCc1ccccc1 (stereo unspecified) | 4 | 1 | -1.5 | 11 | -1.2% | -0.1 |
| C(=C\c1ccccc1)/CN1CCN(C(c2ccccc2)c2nnnn2C2CCCCC2)CC1 (stereo unspecified) | 4 | 3 | -4.2 | / | 8.6% | -0.2 |
| O=[N+]([O-])c1cccc(-c2ccc(/C=N/NC(=S)NCc3ccco3)o2)c1 | 0 | -5 | 14 | 31 | 6.8% | 3.0 |
| O=C(Nc1ccc2c3c(cccc13)CC2)c1cccc([N+](=O)[O-])c1 | -16 | -19 | -0.6 | -1 | 11% | 0.3 |
| COc1ccc(Cc2noc(CN(C)Cc3cccc(-n4cccn4)c3)n2)cc1OC | 5 | 17 | 1.0 | -10 | 0.6% | 2.7 |
